Screens from PubChem BioAssay.
CapD inh = Bacillus anthracis CapD inhibitors, primary screen, biochemical, fluorescence intensity. CapD gamma-glutamyltranspeptidase (Bacillus anthracis Ames Ancestor). purified CapD enzyme, fluorescence intensity read-out; active compounds read low; some hits fall short of the stated cut. z-score (no concentration beside the values). 140,000 compounds, 0.23% hits;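 active = z-score under -4 in either of two replicates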;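 also: stock transfer was 100 nL into about 40 µL; score is relative to mean and spread of the plate; one replicate is shown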
AID504770 = growth inhibition of E. coli YBA685, primary screen, V. cholerae RctB inhibitors; E. coli YBA685 rctB-dependent plasmid, OD600 growth, 3 h; active compounds read low; z-score (no concentration beside the values); 130,000 compounds, 0.27% hits;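 active = z-score under -2 on both plates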;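 also: wells of about 30 µL received 100 nL stock; score is relative to mean and SD of the test wells; the first replicate is given; strong numbers were not always called active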
* marks the source's active call; other numbers are inactive results; . = no result given; & = joins results of further samples. The list is partial, so the mix of outcomes need not match the whole.

Order of results – CapD inh	AID504770
COc1ccccc1CCNC(=O)c1ccc(COc2ccccc2Cl)o1
    0.56	1.2
COc1cc(-c2nnc(NC(=O)CCS(=O)(=O)c3ccc(C)cc3)o2)cc(OC)c1OC
    .	-0.65
C=CCN(CC=C)C(=O)COc1ncnc2sccc12
    .	-0.3
O=C(c1ccncc1)N(c1ccccc1)c1ccccc1
    0.12	1.2
CCOC(=O)c1ccc2[nH]c3c(c2c1)CCCC3NC=O (centres undefined)
    0.18	-0.35
COc1ccc(-c2cc3c(c(=O)[nH]2)c(=O)oc2ccccc23)cc1
    -0.13	.
CC(OC(=O)c1cccn1C)C(=O)Nc1ccc(S(=O)(=O)N2CCCC2)cc1 (centres undefined)
    .	-0.25
C=CCNc1ncnc2c1c(-c1ccccc1)cn2-c1cccc(C)c1
    -0.92	0.1
O=C(NCc1ccccc1)c1c[nH]c2ccc(S(=O)(=O)N3CCC4(CC3)OCCO4)cc2c1=O
    0.69	-0.65
CSc1cc(C(F)(F)F)c(C(=O)Nc2cccc(C)c2C)cn1
    -0.57	-0.9
CC(C)c1nnc(NC(=O)CC(NC(=O)c2ccccc2)c2ccccc2)s1 (centres undefined)
    -0.51	0.15
NC(=O)c1c(NC(=O)CCN2C(=O)c3cccc([N+](=O)[O-])c3C2=O)sc2c1CCCC2
    -0.23	.
N#CCSc1nnc(-n2cccc2)s1
    -0.92	.
CCOC(=O)c1c(/N=C/C2=C(O)CC(c3cccs3)CC2=O)sc(C)c1C (centres undefined)
    -0.62	1.9
Cc1c(C(=O)OCc2cc(=O)n3ccsc3n2)sc2nc3n(c(=O)c12)CCC3
    .	-0.4
O=C(CN(C(=O)c1csnn1)c1cccc(F)c1)NC1CCCC1
    .	1.1
Cc1cccc(-c2nc(CCNC(=O)c3cccs3)cs2)c1
    .	-0.65
Cc1ccc(NC2SC(=O)NC2=O)c(C)c1 (centres undefined)
    -0.39	1
O=S(=O)(c1ccc(C2CCCCC2)cc1)N1CCn2c(nc3ccccc32)C1
    -0.005	1.8
C[N+]1(Cc2nc3ccccc3[nH]2)CCOCC1
    -0.68	0.05

Some of these compounds in order of heavy-atom count, descending.
Order of results – CapD inh	AID504770
Cc1c(C(=O)OCc2cc(=O)n3ccsc3n2)sc2nc3n(c(=O)c12)CCC3
    .	-0.4
CCOC(=O)c1c(/N=C/C2=C(O)CC(c3cccs3)CC2=O)sc(C)c1C (centres undefined)
    -0.62	1.9
COc1ccc(-c2cc3c(c(=O)[nH]2)c(=O)oc2ccccc23)cc1
    -0.13	.
Cc1ccc(NC2SC(=O)NC2=O)c(C)c1 (centres undefined)
    -0.39	1

Among those listed so far, 2 have fluorine:
Order of results – CapD inh	AID504770
CSc1cc(C(F)(F)F)c(C(=O)Nc2cccc(C)c2C)cn1
    -0.57	-0.9
O=C(CN(C(=O)c1csnn1)c1cccc(F)c1)NC1CCCC1
    .	1.1

More records
Order of results – CapD inh	AID504770
CC(C)(C)C(=O)/C(C#N)=C/c1cccs1
    -1.5	-0.05
COc1ccc(-c2nnc(SC3CCOC3=O)o2)cc1 (centres undefined)
    -1.1	0.75
Clc1nc(Cl)nc(NCc2ccccc2)n1
    0.23	0.25
CCCCn1nc(C(=O)Nc2ccccc2C(C)C)ccc1=O
    .	1.4
CCOc1ccccc1CNC1CC(C)(C)NC(C)(C)C1
    -0.3	0.9
OC(CNc1nc(-c2cccnc2)nc2ccccc12)c1ccccc1 (centres undefined)
    .	1.6
CCC1(c2ccccc2)NC(=O)N(C)C1=O (centres undefined)
    -0.84&-0.57	.
O=C(CC1Sc2ccccc2NC1=O)N/N=C/c1ccc([N+](=O)[O-])o1 (centres undefined)
    -2.6	.
COc1ccc(-c2cc(C(N)=O)c3ccccc3n2)cc1
    -0.62	0.5
O=C(NCC(c1ccco1)N1CCCCC1)c1ccc2c(=O)n3c(nc2c1)CCCCC3 (centres undefined)
    .	-1.3
CCN(CC)P1(=S)c2c(C)nn(CCC#N)c2N=C(c2ccc(F)cc2)N1C (centres undefined)
    .	-0.05
CC(C)C(NS(=O)(=O)c1cccc2nsnc12)C(=O)NCc1ccco1 (centres undefined)
    0.1	0.65
CC12CN3CN(C1)CC(C)(C3)C2=O
    .	-0.2
CN(CC(=O)N1CCN(c2ccccn2)CC1)S(=O)(=O)c1ccccc1
    8.9	-0.45
Cc1oc2ccc(NS(=O)(=O)c3cccc([N+](=O)[O-])c3)cc2c1C(=O)OC(C)C
    -0.44	.
CC1=C(C(=O)OC2CCCC(C)C2)C(c2ccccc2OCc2ccccc2)NC(=O)N1 (centres undefined)
    -0.35	.
OCCC1CNCCN1Cc1c(F)cccc1Cl (centres undefined)
    0.59	0.55
NC(=O)C12CC3CC(CC(C3)C1)C2
    .	-0.3
COc1ccc(CCNC(=O)Cc2noc3ccccc23)c(OC)c1
    -0.8	-0.8
O=C(NCc1cccs1)c1ccc2c(c1)ncn2C1CCCC1
    -0.28	1.3
Cc1ccsc1-c1nc(CSCC(=O)NCc2cccnc2)c(C)o1
    30	0.3
Cc1ccc(Cc2ccc(Cl)nn2)cc1
    0.34	-0.6
O=C(CSc1nnc(-c2ccccc2)c(-c2ccccc2)n1)N1CCCCC1
    -0.2	.
COc1cc(NS(=O)(=O)c2c(C)oc3c(F)c(F)c(F)c(F)c23)cc(OC)c1OC
    0.05	-0.7
COc1ccccc1C(=O)On1c(C)nc2ccccc2c1=O
    -0.2	.
Cn1c(CCNC(=O)c2cccs2)nnc1SCC(=O)N1CCN(c2ccccc2)CC1
    -0.33	-0.95
CCOc1ccc2c(c1)S/C(=C1\Oc3ccccc3OC1=O)N2C
    .	-0.15
COc1ccc(N2C(=O)CCC(C(=O)Nc3ccccn3)C2c2ccc(OC)c(OC)c2)cc1 (centres undefined)
    0.44	0.55
Cc1ccccc1-n1c(=O)c2c3c(sc2n2c(SCC(N)=O)nnc12)CCCC3
    -0.04	.
Cc1ccc2c(c1)c(-c1ccccc1)c(-c1ccccc1)n2CC(O)CN1CCOCC1 (centres undefined)
    73	.
CC(C)(C)c1cc2cc(N(Cc3ccccn3)C(=O)c3ccc(C(F)(F)F)cc3)ccc2[nH]1
    -0.4	.
CCCn1c(=O)c(C(=O)Nc2ccc(C)cc2Br)c(O)c2ccccc21
    0.92	.
Cn1cnc(S(=O)(=O)Nc2ccc3c(c2)C(=O)OC3)c1
    1.2	0.2
COc1ccc(-c2cc(OC(=O)c3ccco3)cc3sc(=O)oc23)cc1
    -0.24	-0.15
O=c1c(-c2ccc(I)cc2)[n+]([O-])c2ccccc2n1O
    -0.89	-0.7
O=C(Cn1ncc2c(=O)oc3ccccc3c21)Nc1ccc2c(c1)OCCO2
    0.015	-1.2
CC(NS(=O)(=O)c1ccc2c(c1)CCC2)c1ccc(-n2ccnc2)cc1 (centres undefined)
    .	-0.35
CC1CCCC(NC(=O)C2CCN(C(=O)N(C)C)CC2)C1C (centres undefined)
    0.52	0.15
CC1CN(C(c2ccccc2)c2sc3ncnn3c2O)CC(C)O1 (centres undefined)
    -0.54	0.35
CC(C)(C)NC(=O)Nc1cnccc1C(F)(F)F
    0.71	-0.45

A second format for part of the listing above.
Compound,CapD inh,AID504770
O=C(Cn1ncc2c(=O)oc3ccccc3c21)Nc1ccc2c(c1)OCCO2,0.015,-1.2
CC(NS(=O)(=O)c1ccc2c(c1)CCC2)c1ccc(-n2ccnc2)cc1 (centres undefined),.,-0.35
CC1CCCC(NC(=O)C2CCN(C(=O)N(C)C)CC2)C1C (centres undefined),0.52,0.15
CC1CN(C(c2ccccc2)c2sc3ncnn3c2O)CC(C)O1 (centres undefined),-0.54,0.35

Carrying on.
Order of results – CapD inh	AID504770
NC(=O)N/N=C/c1ccc(-c2ccc(Cl)cc2)o1
    .	0.8
CC(NC(=O)c1ccc(CSc2ccccc2)cc1)c1ccccc1 (centres undefined)
    0.28	0.7
N#Cc1cc(Oc2ccc(F)cc2)c(-n2nnc3ccccc32)cc1C#N
    0.03	-0.05
O=C(NCc1ccccc1)NCc1cccn1Cc1ccccc1
    0.24	0
CN(C)C(=O)O/N=C(\N)c1ccc(OCc2ccccc2F)cc1
    0.17	1.2
Clc1ccc(COc2ccncc2)c(Cl)c1
    -0.72	0.55
Cc1ccccc1N1C(=O)CC(Nc2ccc3c(c2)OCO3)C1=O (centres undefined)
    -0.42	-1.9
CCOC(=O)N1CCN(c2nc(-c3ccccc3)no2)CC1
    0.3	0
COCCN1Cc2cccc(C(=O)NCCc3ccccc3)c2C1=O
    -0.84	0.05
COc1ccc(/C(C#N)=C/C(=O)O)cc1
    0.34	0.55
O=c1c2c3c(sc2[nH]c(=S)n1Cc1ccccc1)CCC3
    3.1	-0.2
COC(=O)c1ccccc1NC(=O)c1ccc2c(c1)sc1nc(-c3ccc(OC)cc3)cn12
    -0.32	-0.75
CC1=C(C(=O)OCC(C)C)C(c2ccc(Cl)cc2)NC(=O)N1C (centres undefined)
    -0.39	1.8
Cc1onc(-c2ccccc2)c1C(=O)N(Cc1ccccn1)Cc1ccccn1
    -0.27	-0.1
C/C(=C/C(=O)Nc1ccc(I)cn1)N1CCCC1
    0.49	.
Cc1cc(C)cc(N2C(=O)CC(=O)NC2=S)c1
    0.3	-0.55
COC(=O)C1=C(C(=O)OC)SC(=C2C(=S)C(C)(C)N(C(=O)CN3C(=O)CCC3=O)c3ccccc32)S1
    1.4	.
CCc1ccc(N=Cc2c[nH]c3ccccc23)cc1
    -0.06	0.3
C=CCN1C(=O)/C(=C/c2ccccc2F)S/C1=N/c1nnc(CC)s1
    -0.28	.
O=C1/C(=C/c2ccc(-c3ccc(Br)cc3)o2)C=C(c2ccccc2)N1c1ccc(Cl)cc1
    0.34	.
COC(=O)c1cccc(OCc2nn[nH]n2)c1
    .	-0.3
c1ccc(CSc2ccc(-c3ccncc3)nn2)cc1
    0.15	-0.2
C=C(C)C(CC=C(C)C)COC(=O)NC(c1ccccc1)c1ccc(Cl)cc1 (centres undefined)
    -0.085	.
CN(Cc1ccccc1)Cc1cc(=O)n2nc(C3CC3)sc2n1
    2.7	-0.4
O=C(Nc1ccc2sccc2c1)c1ccco1
    -0.33	1.9
CCOCCn1cnc2sc(C(=O)NCC(=O)OCC)c(C)c2c1=O
    6	.
CCOc1ccc(N2C(=O)CC(Sc3nc4c(cc3C#N)CCC4)C2=O)cc1 (centres undefined)
    -0.17	.
CCOc1cccc(/C=N\NC(=O)c2ccco2)c1O
    -1.4	0.55
CCCCC(=O)NC(c1ccccc1OC)c1cc(Cl)c2cccnc2c1O (centres undefined)
    0.11	-0.4
CC(=O)n1c(SCC(=O)Nc2ccccc2)nc2ccccc21
    -0.15	0.95
c1cncc(-c2[nH]ncc2-c2cnc3ccccc3n2)c1
    0.35	.
Cc1ccc(C(=O)OCN2C(=O)c3ccccc3C2=O)cc1NC(=O)c1ccco1
    .	-0.5
Cc1ccc(C(=O)Sc2nc(N)c(C#N)cc2C#N)c(C)c1
    9.8	-0.6
COC(=O)CN1C(=O)C2(C(C#N)=C(N)Oc3c2c(C)nn3-c2ccccc2)c2ccccc21 (centres undefined)
    -0.43	.
O=C(NCC(c1cccs1)S(=O)(=O)c1cccs1)Nc1ccc(Cl)cc1 (centres undefined)
    .	1.4
O=C(Cc1ccccc1)Nc1ccc2oc(-c3ccc(Br)cc3)nc2c1
    .	0.35
CCN(CC(=O)NCc1ccc(Cl)cc1)C(=O)c1c(C)noc1C
    .	-0.15
CCC(C)(CC(=O)O)CC(=O)Nc1ccc(Cl)cc1 (centres undefined)
    0.42	-0.8
CCOCc1c(C(=O)N2CCN(c3ncccn3)CC2)oc2ccccc12
    .	-0.65
Cc1cc2c(c(C(C)(C)C)c1)O[P+](=O)Oc1c(cc(C)cc1C(C)(C)C)C2
    0.17	.
Nc1cc(=O)[nH]c(SCc2csc(-c3ccccc3)n2)n1
    .	0.5
O=C(N/C=N/O)c1cc(OCC(F)(F)F)ccc1OCC(F)(F)F
    1.2	.
Cc1cccc(OCCn2c(-c3cccc(C)c3)nc3ccccc32)c1
    0.41	0.1
COc1cc(/C=N/NC(=O)c2cccc(Cl)c2)ccc1OC(=O)OC(C)(C)C
    0.045	.
CSC1=NC(C)(C)C=C(C)N1
    -0.41	-0.3
O=S(=O)(c1ccc(-c2csc(=Nc3ccccc3)n2CCc2ccccc2)cc1)N1CCCC1
    0.28	1.5
CON(C)C(=O)CCC(=O)N1CCN(C(=O)c2cccc(Cl)n2)CC1
    -0.59	.
O=C1CCCc2c1c1cc(NS(=O)(=O)c3ccccc3)ccc1n2S(=O)(=O)c1ccccc1
    -0.34	.
CC1CC(Nc2ccccc2)c2ccccc2N1S(=O)(=O)c1ccc(Br)cc1 (centres undefined)
    0.1	-0.2
COc1ccc(NC(=O)Cn2nnc(C(=O)NCc3ccc4c(c3)OCO4)c2N)c(OC)c1
    4	.
CC(C)(C)c1ccc2c(c1)NC(=O)CO2
    -0.52	-0.9
Cc1cc(Nc2ccccc2)n(CCO)n1
    -0.075	-0.35
COc1ccc(-c2n[nH]c(=S)n2C2CCCCC2)cc1OC
    -0.31	-0.5
